PK Bst: Pyruvate Kinase; Potency, µM; AID 361, 2006; partly purified Bacillus stearothermophilus pyruvate kinase, luminescence ATP production; ribose 5-phosphate activator present at AC10; hit rate 1.2% among 51,000; in the data active means potency below about 11 µM; inconclusive means mostly about 12 µM to 25 µM; inactive means weaker than that;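 the screen sought inhibitors and activators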;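 further: potency means the concentration at half of the fitted maximal effect; scaled between full activation by ribose 5 phosphate and full inhibition by luteolin; about four in five hits inhibit and the cells do not say which; series up to 57 µM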
TsaE inh: qHTS Assay for Inhibitors of YjeE; tRNA threonylcarbamoyladenosine biosynthesis protein TsaE (Escherichia coli (strain …; purified YjeE, fluorescence polarisation of a bound ADP probe; Potency, µM; hit rate 0.05% among 71,000; AID 605, 2007; active = well fitted falling curve; inconclusive = weaker or top-dose-only fall, or a rising curve; inactive = flat or poorly fitted curve;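 further: top concentration of the series not given in the record; excess ADP was the control for the full effect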
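Purified YjeE (10 uM) with BODIPY Texas Red-labeled ADP probe (2 uM); compounds pin-transferred, 15 min at room temperature. Binding inhibition read as decreased fluorescence polarization; ADP titration as control.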
The depositor's hits bear a star; i = inactive; ? = inconclusive; · = no result given. The list is partial; the hit share may differ from the screen's.

Every second line gives: PK Bst, TsaE inh
O=C(CCNS(=O)(=O)c1cccs1)NCc1cccs1
 : >57, i
COc1ccc(O)c(C(=O)c2cnn(C(=O)c3cc(C)oc3C)c2)c1
 : >57, i
C=CCSC1=C(C#N)C(c2ccccc2OCC)CC(=O)N1 (stereo not drawn)
 : >57, i
CCc1ccc2c(c1)CCCN2C(=O)c1ccccc1C(=O)O
 : i, i
O=C(CCN1C(=O)c2ccccc2S1(=O)=O)N1CCN(c2ccccc2)CC1
 : >57, i
COc1ccc(C(=O)NCc2cn3c(C)csc3n2)cc1OC
 : >57, i
O=C(O)C1C2C=CC(C2)C1C(=O)Nc1ccc(C(=O)N2CCCCC2)c(Cl)c1 (stereo not drawn)
 : >57, i
CCOc1nc(Nc2ccc(-c3nc4ccccc4o3)cc2)nc(N2CCOCC2)n1
 : >57, i
Cc1cc(Cl)ccc1OCC(=O)Oc1c(Cl)c(Cl)c(Cl)c(Cl)c1Cl
 : ·, i
C=CCn1c(C)cc(C(=O)COc2ncnc3sccc23)c1C
 : ?, i
Cc1oc2c(O)c(O)ccc2c(=O)c1-c1cnn(-c2ccccc2)c1
 : ·, i
O=C(c1cnccn1)N1CCC[C@@]2(CCN(Cc3ccccc3)C2)C1
 : ·, i
N#CC1=C(N)NC(SCC(=O)O)=C(C#N)C12CCCC2
 : >57, i
CN1CCN(c2ncc3nc(-c4cn(C)c5ccccc45)c(=O)n(CCc4ccccc4)c3n2)CC1
 : ·, i
Cc1noc(C)c1C(=O)NC1CCCc2ccccc21 (stereo not drawn)
 : >57, i
C=CCOC(=O)CC(NC(=O)c1ccccc1)c1ccccc1 (stereo not drawn)
 : ·, i
O=S(=O)(c1cccc(-c2nc3n(n2)Cc2ccccc2-3)c1)N1CCCC1
 : ·, i
CCN1C(=O)C2(C(C#N)=C(N)Oc3n[nH]c(COC)c32)c2ccccc21 (stereo not drawn)
 : >57, i
Cc1nc(N2CCC(C)CC2)c2oc3ccccc3c2n1
 : ·, i
Cc1ccc(NC(=O)N2CCC(C(=O)NCc3ccccc3)CC2)cc1
 : >57, i
C=CCn1c(=O)c2ccccc2n2c(SCC(=O)NCc3cccs3)nnc12
 : ·, i
CCCCC(=O)NCCNc1nc2c(c(=O)n(C)c(=O)n2C)n1Cc1ccc(F)cc1
 : >57, i
CCOC(=O)c1oc2ccccc2c1NC(=O)c1cc(OC)cc(OC)c1
 : >57, i
COc1cc(-c2nn3c(Cc4ccccc4)nnc3s2)cc(OC)c1OC
 : >57, i
COc1ccc(-c2nnc(SCC(=O)/C(C#N)=C(\C)N)o2)cc1
 : ·, i
COc1ccc(Nc2nc(N)nc(SCc3nnc(C)s3)n2)cc1
 : i, i
Cc1ccccc1NS(=O)(=O)c1ccc(F)cc1
 : ·, i
COc1cccc(-c2nnc(SCC(=O)Nc3cc(C)ccc3OC)n2N)c1
 : >57, i
COCCNC(=O)C(C)OC(=O)c1cc2occc2n1C (stereo not drawn)
 : >57, i
CCOC(=O)c1ccccc1NC(=O)c1cn(CC)c2nc(C)ccc2c1=O
 : >57, i

Ordered by formula weight (lowest first): some entries from above
Every second line gives: PK Bst, TsaE inh
COCCNC(=O)C(C)OC(=O)c1cc2occc2n1C (stereo not drawn)
 : >57, i
COc1ccc(-c2nnc(SCC(=O)/C(C#N)=C(\C)N)o2)cc1
 : ·, i
CCN1C(=O)C2(C(C#N)=C(N)Oc3n[nH]c(COC)c32)c2ccccc21 (stereo not drawn)
 : >57, i

Other compounds follow:
Every second line gives: PK Bst, TsaE inh
COc1ccc(NC(=O)N2CCCC3(CCN(C(=O)c4cccn4C)CC3)C2)cc1
 : ·, i
Cc1ccc2nc(N3CCOCC3)c3nncn3c2c1
 : ·, i
Cc1cc(NC(=O)COn2nnc3ccc(Cl)cc32)no1
 : >57, i
COC(=O)COc1ccc(S(=O)(=O)Nc2ccccc2C(=O)OC)cc1
 : >57, i
COCCN1C(=O)c2oc3ccccc3c(=O)c2C1c1ccc(O)c(OC)c1 (stereo not drawn)
 : ·, i
N#Cc1nc(COc2ccc(Cl)cc2Cl)oc1N1CCOCC1
 : >57, i
O=C(Nc1ccc2c(c1)OCO2)N1CCN(S(=O)(=O)c2ccc(Cl)cc2)CC1
 : >57, i
CCN(CC)CCCNC(CC(=O)O)C(=O)O (stereo not drawn)
 : >57, i
Cc1ccc2ccccc2c1[N+](=O)[O-]
 : ·, i
O=C(NCc1cccnc1)c1cc(-c2ccccc2)on1
 : >57, i
COc1cccc(-n2nnnc2SCC(=O)c2cc(OC)ccc2OC)c1
 : >57, i
O=C(NCc1ccco1)C(c1cccnc1)N(C(=O)Cn1nnc2ccccc21)c1ccccc1 (stereo not drawn)
 : >57, i
COC(=O)[C@@]1(Cc2ccc(F)cc2)[C@H]2c3cc(C(=O)N(C)C)n(Cc4ccc(OC)c(OC)c4)c3C[C@H]2CN1C(=O)c1ccccc1
 : ·, i
COc1cc(C2C3=C(Nc4ncnn42)c2ccccc2CC3)cc(OC)c1OC (stereo not drawn)
 : >57, i
CNCC[C@H](Oc1ccccc1C)c1ccccc1
 : ·, i
COC(=O)C1=C(C)N=C2SCCC(=O)N2C1c1ccc(C(=O)OC)cc1 (stereo not drawn)
 : >57, i
Cc1ccc(CNc2cc(-c3nn4c(C)nnc4s3)ccc2C)s1
 : >57, i
Cn1c(SCC(=O)Nc2ccc(F)cc2)nnc1-c1cccnc1
 : ·, i
COC(=O)c1c(C)[nH]c(C(=O)COC(=O)Cc2ccc3c(c2)OCCO3)c1C
 : >57, i
Cn1c(CNc2ccccn2)c(C#N)c2ccccc21
 : >57, i
COc1ccc(C2C(C(N)=O)=C(C)Nc3nc(-c4ccccc4Cl)nn32)c(OC)c1 (stereo not drawn)
 : ·, i
CCn1c(=N)n(CC(=O)c2ccco2)c2ccccc21
 : ·, i
COc1cc(NC(=O)c2ccc(Br)o2)ccc1NC(=O)c1ccccc1Cl
 : >57, i
Cc1occc1C(=O)OCC(=O)Nc1ccc(F)cc1
 : >25.6, ·
COCCNC(=O)c1ccc(NS(=O)(=O)c2cc(C)ccc2C)cc1
 : i, i
CCOC(=O)CSC1=C(C#N)C(=O)NC2(CCCCC2)S1
 : >25.6, ·
O=C1CCC(C(=O)N(Cc2ccco2)C2(C(=O)NC3CCCC3)CCCCC2)N1 (stereo not drawn)
 : >57, i
Cc1cc2ncn(S(=O)(=O)N3CCCCC3)c2cc1C
 : >57, i
O=C(NC1CCCc2ccccc21)C1CCN(S(=O)(=O)c2cccc3nsnc23)CC1 (stereo not drawn)
 : >57, i
O=C(CCC(=O)N1CCc2ccccc21)Nc1ccccc1
 : >57, i

Later entries.
Compound | PK Bst | TsaE inh
COc1cc2c(C(=O)N3CCN(C)CC3)c(C)oc2cc1Br | >57 | i
Cc1nn(-c2ccccc2)c2c1C(O)n1c(nc3ccccc31)S2 (stereo not drawn) | >57 | i
CC(C)C(=O)Nc1ccc(C(=O)N2CCN(C(=O)c3ccco3)CC2)cc1 | >57 | i
COC(=O)C(CC(C)C)Oc1ccc2c(C)cc(=O)oc2c1 (stereo not drawn) | · | i
COc1ccccc1NC1=NC(c2ccc(Cl)cc2)N=C(N)N1 (stereo not drawn) | >57 | i
CCOC(=O)N1CCC(NC(=O)c2ccc3c(=O)n4c(nc3c2)CCCC4)CC1 | >57 | i
CCC(=O)Nc1c2c(nn1-c1ccccc1C)CSC2 | >57 | i
CCN1C(=S)SC(=O)C1=C1C=C(C)N(CCO)C(C)=C1 | · | i
O=C(COc1cccc(OC(F)F)c1)Nc1ccc(SC(F)F)cc1 | >57 | i
CCN1C(=O)C(NC(C)=O)c2cc(Br)ccc21 (stereo not drawn) | >57 | i
Cc1nn(CC(=O)NC(C)c2ccccc2)c(=O)c2ccccc12 (stereo not drawn) | >57 | i
Nc1nc(SCc2ccccc2)c2ncn(Cc3ccccc3)c2n1 | · | i
O=C(N1CCOCC1)N1CCC(n2nnc3ccccc32)CC1 | >57 | i
CCOC(=O)C1CCCN(c2c(NCC3CCCN3CC)c(=O)c2=O)C1 (stereo not drawn) | · | i
Cc1ccc(S(=O)(=O)N2CCN(C(=O)CSc3nnc(C)s3)C2)cc1 | · | i
Clc1ccc(OCc2nnc(SCc3nnc(-c4ccccc4)o3)o2)c(Cl)c1 | >57 | i
COC(=O)c1ccccc1NC(=O)C1CCN(C(=O)c2cc(OC)c(OC)c(OC)c2)CC1 | · | i
O=C(c1cccc(F)c1)N1CCN(CC2CC3C=CC2C3)CC1 (stereo not drawn) | >57 | i
O=C(Nc1ccc2c(c1)OCCO2)C1CCN(S(=O)(=O)c2cccc3nsnc23)CC1 | 9.29* | i
Cc1[nH]c2ccc(CNS(=O)(=O)c3ccc(S(=O)(=O)N4CCOCC4)cc3)cc2c1C | >57 | i
COC(=O)c1cc2oc(C)cc2n1CC(=O)Nc1ccc(C)c(C)c1 | >57 | i
CCN(CC)CCCn1c(C)cc2c(c1=O)C(c1cc(OC)c(OC)cc1OC)C(C#N)=C(N)O2 (stereo not drawn) | >57 | i
CCc1nc2sc3c(c2c(=O)n1N)CCC3 | >57 | i
CCOC(=O)COn1c(=O)c(-c2cccs2)[n+]([O-])c2ccccc21 | · | i
CCCn1cnc2c(SCc3ccc(Cl)cc3)nc(N)nc21 | · | i
N#Cc1sc2nc3c(c(-c4ccco4)c2c1N)CCCC3 | · | i
O=C(Cc1c[nH]c2ccccc12)Nc1nc2ccccc2[nH]1 | >57 | i
O=c1c(C(c2nnnn2C2CCCCC2)N2CCCCC2)coc2ccc(Cl)cc12 (stereo not drawn) | >57 | i
CCCn1c(NCc2cc(C)ccc2O)nc2ccccc21 | · | i
COc1ccccc1OC[C@H](O)CN1CCN(CC(=O)Nc2c(C)cccc2C)CC1 | · | i
COc1ccc(N2CCN(C(=O)CCNS(=O)(=O)c3ccc(Br)s3)CC2)cc1 | >57 | i
COc1ccc2[nH]c3ccccc3c2c1 | i | i
COc1ccc(C)cc1N(CC(N)=O)S(=O)(=O)c1ccc(C)cc1 | · | i
COC(=O)Cc1cnc(NC(=O)C2C3CCC(C3)C2C(=O)O)s1 (stereo not drawn) | >57 | i
CCOC(=O)C1(Cc2ccccc2)NC(c2ccccc2F)C2C(=O)N(CC)C(=O)C21 (stereo not drawn) | >57 | i
COc1ccc(-n2c(=O)cc(N3CCN(c4ccccc4)CC3)[nH]c2=O)cc1 | >57 | i
CC1(C)CC(=O)C2=C(C1)NC(=O)CC2c1cc(F)ccc1F (stereo not drawn) | >57 | i
[O-]/[N+](=C\c1ccc(OC(F)F)cc1)c1ccccc1 | · | i
CCOC(=O)CCN(Cc1cccs1)S(=O)(=O)c1ccc(F)cc1 | >57 | i
O=C(C1CCCN1C(=O)c1cccs1)N1CCc2ccccc21 (stereo not drawn) | >57 | i
O=C(Cn1nc(C(F)(F)F)c2c1CCCCC2)N1CCOCC1 | >57 | i
COc1ccc(-c2nnn(CC(=O)N(CC(=O)NCCC(C)C)Cc3cccs3)n2)cc1OC | >57 | i
O=C1OCCC1Sc1nc2ccccc2[nH]1 (stereo not drawn) | >57 | i
COC(=O)C1C2C=CC3(CN(CC4CCCO4)C(=O)C13)O2 (stereo not drawn) | >57 | i
Cc1c(NC(=O)C(C)OC(=O)CC2Sc3ccccc3NC2=O)c(=O)n(-c2ccccc2)n1C (stereo not drawn) | >57 | i
O=C(O)C1CCN(S(=O)(=O)c2cccnc2)CC1 | >57 | i
CNc1ccc(O)cc1 | · | i
Cn1c2ccccc2c2c(C(=O)NCc3ccco3)cn(C3CCCCC3)c(=O)c21 | · | i
COc1cccc(-c2cc(C(=O)Nn3cnnc3)c3ccccc3n2)c1 | · | i
CC(=O)Nc1nc(CC(C)C)cc(-c2ccco2)c1C#N | >57 | i
O=C(O)c1cc2ccc3ccccc3c2[nH]1 | >57 | i
Fc1cccc2sc(Nc3nnc(-c4ccccc4)o3)nc12 | i | i
COC(=O)Cn1cc(C(=O)OC)c2ccccc21 | >57 | i
O=C(CC1Oc2ccccc2NC1=O)NCc1ccc(Cl)cc1 (stereo not drawn) | · | i
Nc1nc2c3ccccc3nc(C3CC3)n2n1 | ? | i
O=c1nc2n(c3c4c(sc13)CCC4)CCC2 | · | i
COc1ccccc1-n1nnnc1S(=O)(=O)Cc1ccc(Cl)cc1 | >57 | i
Cn1ccnc1SCC(=O)N(C1CCCCC1)C1CCCCC1 | >57 | i
Cc1ccc(C)c(S(=O)(=O)NC(CC(C)C)C(=O)O)c1 (stereo not drawn) | >57 | i
COC(=O)[C@@H](NC(=O)Nc1ccccc1F)C(C)C | >57 | i

The list continues:
Compound | PK Bst | TsaE inh
O=c1c(O)c(-c2cccc(O)c2)oc2ccccc12 | · | i
CCOc1cc(C)c(Cl)cc1S(=O)(=O)n1nnc2ccccc21 | >57 | i
O=C(Cn1cnc2sc(-c3ccccc3)cc2c1=O)NCc1ccco1 | · | i
CC(C)(C)NC(=O)c1sccc1C(=O)O | >57 | i
O=C(c1cc(C(F)(F)F)cc(C(F)(F)F)c1)N1CCC[C@@]2(CCN(Cc3ccncc3)C2)C1 | · | i
COc1ccc(NC(=O)CNc2cccc(C#N)c2)cc1Cl | >57 | i

Entries listed so far shown as hits in PK Bst.
Compound | PK Bst | TsaE inh
O=C(Nc1ccc2c(c1)OCCO2)C1CCN(S(=O)(=O)c2cccc3nsnc23)CC1 | 9.29* | i

In a second layout: results already given.
smiles: CCOc1cc(C)c(Cl)cc1S(=O)(=O)n1nnc2ccccc21
  PK Bst: >57	TsaE inh: i

smiles: O=C(Cn1cnc2sc(-c3ccccc3)cc2c1=O)NCc1ccco1
  PK Bst: ·	TsaE inh: i

smiles: CC(C)(C)NC(=O)c1sccc1C(=O)O
  PK Bst: >57	TsaE inh: i

smiles: O=C(c1cc(C(F)(F)F)cc(C(F)(F)F)c1)N1CCC[C@@]2(CCN(Cc3ccncc3)C2)C1
  PK Bst: ·	TsaE inh: i
